Six1-Eya2 blk = blocks human Six1 binding to Eya2. AlphaScreen GST-Six1/His-Eya2 binding, biochemical; stronger effect = lower value; control for the full effect not named in the record. activity change, % (no concentration beside the values). actives 0.56% (n = 360,000). AID 651725; in the data active = activity change below about -65%; inconclusive = about -30% to -65%; inactive = above about -30%; further: on the % scale 0 is the no-effect control and ±100 the full control effect; compound concentration not given in the record
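Homogeneous AlphaScreen proximity assay pairing GST-Six1 with His-tagged Eya2 (added as 5X mix: 250 nM and 500 nM) in 50 mM Tris pH 8.0, 300 mM NaCl, 1 mM TCEP. Glutathione donor and nickel acceptor beads; 1 h, 37 °C, dark.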
D2 agonist = agonists of human D2 dopamine receptor (beta-arrestin); P14416; DiscoveRx PathHunter D2 beta-arrestin, luminescence, 90 min; 100% = 57 uM dopamine signal; activation, % (concentration not given with the values); actives 0.084% (n = 360,000); in the data active = activation above about 40%; inconclusive = about 15% to 40%; inactive = below about 15%; further: compound concentration not given in the record; the text of the record calls up to 30% inactive
Target sequence (P14416 whole entry, looked up): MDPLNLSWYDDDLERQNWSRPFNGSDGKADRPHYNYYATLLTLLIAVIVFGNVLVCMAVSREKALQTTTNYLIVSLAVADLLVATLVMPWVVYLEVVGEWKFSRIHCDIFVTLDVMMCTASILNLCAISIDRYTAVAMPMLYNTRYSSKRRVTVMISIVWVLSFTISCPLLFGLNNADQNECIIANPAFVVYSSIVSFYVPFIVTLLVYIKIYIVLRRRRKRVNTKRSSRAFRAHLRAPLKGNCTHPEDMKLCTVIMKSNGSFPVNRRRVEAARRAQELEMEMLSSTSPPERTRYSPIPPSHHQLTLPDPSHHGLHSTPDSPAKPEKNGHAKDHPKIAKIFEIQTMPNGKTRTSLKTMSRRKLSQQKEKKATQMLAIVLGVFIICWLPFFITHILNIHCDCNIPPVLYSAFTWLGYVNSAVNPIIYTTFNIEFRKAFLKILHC
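DiscoveRx PathHunter D2 beta-arrestin cells (2,100/well) attached overnight, then compound-stimulated 90 min at 37 C in HBSS/10 mM HEPES/0.1% Tween-20 buffer; beta-galactosidase complementation read by luminescence after 1 h at ambient temperature. Dopamine 57 uM final (EC100) as control.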
TRPV1 PAM = enhances activation of the human vanilloid receptor TRPV1 | actives 0.02% (n = 320,000) | Q8NER1 | potentiation, % at 8.33 µM | TRPV1-expressing cells, Fluo-8 calcium influx, capsaicin EC20 potentiation; host cell line not named in the record; control for the full effect not named in the record; active means potentiation above 80%; inconclusive means 30% to 80%; inactive means below 30%; further: 0% is about no effect
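TRPV1-expressing cells were cultured overnight at 35.5C and loaded with Fluo-8 calcium dye for 40 to 90 min at room temperature. After a 10 s baseline, compound was added and calcium influx was read kinetically for 3 min (ex 480/em 520 nm).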
Sfp PPTase inh = Sfp phosphopantetheinyl transferase inhibition. Q9F4F7. Biochemical Sfp PPTase activity, qHTS. Potency, µM, for the others: max response, negative = inhibition, actives largely listed as inhibitors. actives 3.5% (n = 310,000); active means well fitted inhibition curve with a large enough effect; inconclusive means small, poorly fitted or top-dose-only effect, or another doubt; inactive means no such curve, though single readings can be large or run the other way;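 further: the enzyme is Sfp with the accession as filed and its product quenches rhodamine fluorescence; potency means the concentration at half of the fitted maximal effect; 0% = enzyme reaction without inhibitor and -100% = no enzyme wells; top concentration of the series not given in the record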
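After 15 min at room temperature with compound, 15 nM Sfp received 5 uM rhodamine-CoA plus 12.5 uM BHQ-2-ybbR (50 mM Hepes pH 7.6, 10 mM MgCl2). Rate came from the fluorescence difference over 30 min, ex 525/em 598 nm.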
PINK1 modulator = modulators of PINK1 expression; PINK1 immunofluorescence, high-content cytometry, 24 h; Potency, µM (titrated, usually from 76.6 µM), for inactives: at the highest dose activation (PINK1 increase), usual class: activators; actives 0.2% (n = 410,000); AID 624263; active = well fitted activation curve with a large enough effect; inconclusive = small, poorly fitted or top-dose-only effect; inactive = flat fitted curve, though single readings scatter; cell line not stated here;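 further: potency means the concentration at half of the fitted maximal effect; % of control where 0% means no effect; nearly all actives have a fitted effect of over 65% in size; a mitochondrial uncoupler was the plate control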
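Fluorescence from anti-PINK1 antibody, together with nuclear and cell stains, was scanned on a laser-scanning cytometer. Before staining, stable-line cells were incubated 24 hours with compounds at 5 concentrations; primary antibody 12 h at 10 degrees C.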
CtBP-E1A blk = CtBP/E1A binding inhibition; AlphaScreen GST-E1A/His-CtBP binding, 1536-well; stronger effect = lower value; control for the full effect not named in the record; activity change, % (test concentration not listed); actives 0.49% (n = 340,000); AID 651724; in the data active means activity change below about -65%; inconclusive means about -30% to -65%; inactive means above about -30%; further: on the % scale 0 is the no-effect control and ±100 the full control effect; compound concentration not given in the record
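Protein mix (5X: 125 nM each GST-E1A, His-CtBP) was incubated with pinned compound 2 h at 37 deg C in dark, in 50 mM Tris pH 8.0 buffer with 300 mM NaCl. Glutathione donor and nickel acceptor beads followed; AlphaScreen signal read after 1 h.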
D2 potentiator = human D2 receptor positive allosteric modulation. P14416. DiscoveRx D2 beta-arrestin cells, luminescence, 90 min; 100% = 57 uM dopamine signal. potentiation, % (no concentration beside the values). actives 0.23% (n = 360,000); active = potentiation of 50% or more; inconclusive = 30% to 50%; inactive = 30% or less;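 further: compound concentration not given in the record; tested on top of an EC20 dose of dopamine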
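D2 cells co-treated with compound plus 50 nM dopamine (EC20) for 90 min at 37 deg C to detect potentiation. Beta-arrestin recruitment was read as enzyme-fragment luminescence after 1 h at ambient temperature. Full response was set by 57 uM dopamine.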
Numbers without * were called inactive; ? = inconclusive; nt = no result given; [ ] = remark or other dose. The order is random. About 3.7% of those tested had a hit in this group.

Every second line gives: Sfp PPTase inh, CtBP-E1A blk, PINK1 modulator, Six1-Eya2 blk, D2 agonist, TRPV1 PAM, D2 potentiator
- COc1ccc(NC(=S)NNC(=O)Cn2nc(C(F)F)cc2C(F)F)cc1
  15%, 13, -0.4%, 0, -1.2, 2, -27
- Cc1cccc(OC(=O)c2ccc3nccnc3c2)c1
  -4%, 3, 0.9%, -2, -1.5, 1, -7
- CN(Cc1ccccc1)S(=O)(=O)c1ccc(Cl)c(C(=O)NCc2ccc3c(c2)OCO3)c1
  11%, 5, ?, 5, 2.9, -4, -6
- CCN1C(=O)c2ccccc2Sc2ccc(C(=O)NC(C)C)cc21
  6%, -4, -1.8%, 9, 6.6, 0, -6
- O=C1Nc2ccccc2/C1=N\c1sc2c(c1C(=O)Nc1ccccc1)CCCC2
  4%, 5, nt, -6, -3.4, -16, 4
- O=C(c1cn(-c2ccccc2)nc1-c1cccs1)N1CCN(c2ccccc2)CC1
  0%, -14, 20%[38.3 µM], -15, ?, 9, 3
- O=C1OCC2=C1C(c1ccc(F)cc1)c1cc3c(cc1N2)OCO3 (stereo unspecified)
  -3%, 3, 5.5%, -2, -2.7, -2, -4
- Cc1ccc(-c2csc3nc(C(C)C)oc(=O)c23)c(C)c1
  -21%, nt, 5.6%, -1, -0.6, nt, 2
- CCc1c(C)nc2c(-c3ccccc3)c[nH]n2c1=O
  2%, -19, 0.5%, -10, -1.3, 10, -9
- CCOC(=O)Nc1ccc2c(c1)N(C(=O)CN(C)C)c1ccccc1CC2
  8%, -11, 0.1%, 9, -5.6, 0, -6
- COc1ccc(CCC(=O)NNC(=O)c2cc(Cl)ccc2OC)cc1OC
  27%, 2, 2.8%, -2, -1.9, -2, -2
- CCOc1ccc(-c2nc(-c3cccnc3)no2)cc1
  0%, 1, 0.6%, 12, -1.1, 11, 5
- CN1CCN(C(=O)c2ccc3c(=O)n(CCc4ccccc4)c(=S)[nH]c3c2)CC1
  nt, 2, 0.4%, 0, -1.6, nt, -7
- Cc1ccc(C)c(NC(=O)COc2coc(CN3CCc4ccccc43)cc2=O)c1
  nt, -3, 0.5%, -10, -0.6, 6, -9
- Cc1cc(Cl)ccc1OCCCC(=O)OCC(=O)c1c(N)n(C)c(=O)n(C)c1=O
  -5%, 8, 0.0%, -1, -1.9, ?, -12
- Cc1ccc2nc(N(CCN3CCOCC3)C(=O)CCS(=O)(=O)c3ccccc3)sc2c1
  nt, 2, 6.3%, 2, -1.7, 5, -3
- Cc1ccc([C@@H]2[C@@H]3C(=O)N(C)C(=O)[C@@H]3[C@]3(Cc4ccccc4)C(=O)N(Cc4ccccn4)CC(=O)N23)o1
  2%, 5, -0.3%, 3, -1.6, -16, -14
- Cc1cccc(N(C(=O)CCC(=O)Nc2ccccn2)C(C(=O)NC(C)C)c2ccc(F)cc2)c1 (stereo unspecified)
  -8%, 6, 0.4%, -6, -1.7, 3, -3
- CCCOc1ccc(C(=O)Nc2cc(S(=O)(=O)N3CCOCC3)ccc2N2CCN(CC)CC2)cc1OC
  nt, 0, -0.9%, -9, -1.0, nt, -16
- CC1CCCC(C)N1CC(O)COCC1COc2ccccc2O1 (stereo unspecified)
  8%, -2, -2.5%, 6, -0.1, -12, -15
- Oc1ccc(/C=N/n2c3ccccc3c3ccccc32)cc1
  17%, -2, 11%, -11, -3.7, 12, -14
- O=C(NC(=O)c1c(Cl)cccc1Cl)Nc1ccc(Oc2cccnc2)nc1
  -5%, 7, 0.5%, -4, 1.5, nt, -1
- CCOc1cc(N2CCOCC2)c(OCC)cc1NC(=O)CCC1CCCC1
  -20%, 0, 0.2%, -5, -6.6, -24, -4
- CCC(c1nnnn1Cc1ccc(F)cc1)N1CCN(C)CC1 (stereo unspecified)
  11%, 10, 0.8%, -3, -2.7, -3, -5
- O=C(NCc1ccc(F)cc1)c1ccc(CS(=O)(=O)Cc2ccc(F)cc2)o1
  24%, 1, -1.8%, -11, -0.9, 0, -3
- O=c1c(Cl)c(N2CCN(S(=O)(=O)c3ccccc3)CC2)cnn1-c1ccccc1
  23%, 18, 11%, 11, -3.0, -3, -12
- COc1ccc(NS(=O)(=O)c2cccc(-c3nnc4n3CCCCC4)c2)cc1
  -2%, -3, -1.8%, -5, -3.6, 13, -3
- Cc1ccc(S(=O)(=O)N2CCOCC2)c(C)c1-n1cnnn1
  7%, -2, nt, 0, 0.3, 20, -1
- Cc1[nH]c2ccc(C(=O)OC(C)C(=O)NCc3ccccc3)cc2c1C (stereo unspecified)
  nt, -9, 1.0%, -2, 6.6, -7, -15
- CC(=O)NC(Cc1c[nH]c2ccccc12)C(=O)N1CCN(S(=O)(=O)c2ccccc2)CC1 (stereo unspecified)
  nt, -1, 0.7%, 0, -2.8, -10, -15
- Nc1nc(CSC(=S)N2CCOCC2)nc(Nc2ccc(F)cc2)n1
  17%, -1, 14%, -7, -1.3, -7, -10
- O=C(Nc1ccc(Cl)c(Cl)c1)C1C2C=CC3(O2)C1C(=O)N(CCN1CCCCC1)C3C(=O)NC1CCCCC1 (stereo unspecified)
  6%, 1, 0.6%, -5, 3.4, 9, -14
- CC(C)C[C@H]1CN=C(N(C)C)N1CCCCc1ccccc1
  nt, 1, 3.7%, -2, 1.3, 2, -7
- CC1CN=C(N(C(=O)Nc2ccccc2)c2ccc(S(=O)(=O)N3CCOCC3)cc2)S1 (stereo unspecified)
  -4%, 0, -1.1%, -1, 0.0, -2, -10
- O=c1oc2ccccc2n1CCc1ccccc1
  3%, 0, 3.4%, 4, -1.7, -16, -15
- O=C(COC(=O)c1cn(-c2ccccc2)nc1-c1cccnc1)NC1CC1
  16%, nt, -0.6%, 2, -3.3, -2, ?
- c1coc(-c2ccc3nncn3c2)c1
  nt, -17, 0.0%, ?, 7.2, nt, -9
- CCOC(=O)N1CCN(CCC(=O)c2ccc(Cl)cc2)CC1
  50µM*, -1, -1.6%, 12, -1.4, nt, -5
- Cc1ccc(Nc2ncnc3sc(C)c(C)c23)cc1
  10%, -20, 2.0%[38.3 µM], 7, -1.5, -9, -14
- CN(C(=O)CN1C(=O)/C(=C/c2ccc(Cl)cc2)SC1=S)C1CCS(=O)(=O)C1 (stereo unspecified)
  4%, 2, 0.9%, -2, 0.6, -15, -7
- CN(C)S(=O)(=O)c1ccc2nnn(OCC(=O)NC3CCS(=O)(=O)C3)c2c1 (stereo unspecified)
  nt, 7, 0.2%, 6, 0.3, 30, 0
- CNS(=O)(=O)c1cc(-c2nnc(Nc3ccc(CC(N)=O)cc3)c3ccccc23)ccc1C
  -4%, -9, -1.6%, -11, -3.1, -27, -3
- COc1ccc(NC(C)C(=O)N2CCN(Cc3ccccc3)CC2)cc1 (stereo unspecified)
  20%, 0, 0.3%, 16, -4.7, 26, -13
- COc1cccc(C(=O)Nc2cc(OC)ccc2NC(=O)c2ccco2)c1
  7%, 7, -1.0%, 10, -1.9, -22, -23
- OCCNc1nc(N2CCN(Cc3ccccc3)CC2)nc2ccccc12
  15%, -4, -5.1%, -2, -0.8, -10, -16
- CCc1ccc(N2CC34C=CC(O3)C(C(=O)OC(C)C)C4C2=O)cc1 (stereo unspecified)
  4%, 5, 0.3%, 3, -0.7, -3, 1
- CC(C)Oc1cccc(C(=O)C2CCCN(Cc3cnc(N4CCCC4)s3)C2)c1 (stereo unspecified)
  3%, -17, -2.7%, 0, -1.4, -9, -18
- CCN(CC)c1ccc(C(=O)NNC(=O)c2ccc3c(=O)n4c(nc3c2)CCC4)cc1
  nt, -12, -0.3%, -11, 0.3, -8, 1
- CCNc1nc(Nc2ccc(C)c(Cl)c2)c2cnn(C)c2n1
  -4%, ?, -1.8%, -16, 1.0, 8, 0
- Cc1ccc(C(=O)Nc2cccnc2)cc1S(=O)(=O)N1CCCCC1
  13%, nt, 1.6%, -5, 0.4, 9, -1
- O=C(CCC(=O)NNC(=O)COc1ccc(Br)cc1Br)NCc1ccccc1
  ?, nt, 0.5%, 16, 1.6, 1, -3
- CCOC(=O)C[C@H]1c2ccccc2S(=O)(=O)N1c1cccc(OC)c1
  nt, 4, -1.1%, 3, -0.5, nt, -4
- NS(=O)(=O)c1ccc(CNC(=O)/C=C/c2ccc(Cl)c(Cl)c2)cc1
  5%, 0, -0.1%, -3, -1.2, -2, 1
- COc1ccc(S(=O)(=O)NC(=O)C2(C)CCN2C(=O)C2(c3ccccc3)CCCC2)cc1 (stereo unspecified)
  nt, 1, 0.1%, 1, -4.8, nt, 2
- CCOC(=O)c1ccc2c(c1)NC(=O)C(N1CCN(c3ccc(OC)cc3)CC1)S2 (stereo unspecified)
  5%, -2, 7.6%, 2, -5.0, 2, 2
- CC(OC(=O)c1ccccc1)C(=O)NCc1ccco1 (stereo unspecified)
  nt, 1, -0.2%, -2, -5.2, nt, -9
- CN(C)C(=O)CN1C(=O)NC(c2ccccc2)(c2ccccc2)C1=O
  -4%, 6, 3.4%, 4, 4.8, -4, 2
- Nc1ncnc2c1ncn2[C@@H]1O[C@H](CNC(=O)[C@@H](N)Cc2ccc(C(F)(F)F)cc2)[C@@H](O)[C@H]1O
  nt, 6, -0.3%, 4, -0.5, nt, nt
- Cc1ccc(S(=O)(=O)Nc2cc3c4c(c2)CCC(=O)N4CCC3)cc1
  nt, -7, 1.4%, 4, -5.2, -3, -1
- CC(C)c1ccc(OCC(=O)Nc2ccc(S(=O)(=O)Nc3ccccn3)cc2)cc1
  4%, -10, 2.1%, 4, -1.0, 2, -3

(next part)
Every second line gives: Sfp PPTase inh, CtBP-E1A blk, PINK1 modulator, Six1-Eya2 blk, D2 agonist, TRPV1 PAM, D2 potentiator
- Nc1ccc2nc(SCc3ccccc3F)sc2c1
  -22%, -3, 11%, -8, 6.3, 3, -2
- CCOC(=O)c1nn(-c2ccc(OC)cc2)c(=O)c2c(N)scc12
  10µM*, -21, 12%[38.3 µM], -5, 5.2, 2, 13
- CSC1=NCCN1C(=O)C12CC3CC(CC(C3)C1)C2
  14%, 4, 5.5%, -1, -2.7, -14, -10
- O=C(c1ccco1)N1CCN(C(=O)C2CCN(S(=O)(=O)c3cccs3)CC2)CC1
  -23%, -7, -1.2%[38.3 µM], -3, -4.7, 0, -13
- COc1ccc(Cl)cc1C(=O)NCCCSc1ccccc1
  5%, 10, -0.3%, 6, -0.3, -8, 2
- CN(CC(=O)Nc1ccc(OC(F)F)cc1)S(=O)(=O)/C=C/c1ccccc1
  nt, 5, 3.8%, -7, 12, nt, -2
